GIV Gai3 FP: blocks GIV peptide binding to rat Galpha-i3; Galpha-i3/FITC-GIV peptide fluorescence polarization, 90 min; active compounds read low; scaled: aluminum fluoride 0%, vehicle 100%; percent of control (FP), % (concentration not given with the values); actives 0.42% (n = 210,000);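 active = replicate mean at 85% of control or lower, very high polarization wells dropped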;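 also: wells of about 15 µL received 100 nL stock; the first replicate is given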
Target sequence (P08753 whole entry, looked up): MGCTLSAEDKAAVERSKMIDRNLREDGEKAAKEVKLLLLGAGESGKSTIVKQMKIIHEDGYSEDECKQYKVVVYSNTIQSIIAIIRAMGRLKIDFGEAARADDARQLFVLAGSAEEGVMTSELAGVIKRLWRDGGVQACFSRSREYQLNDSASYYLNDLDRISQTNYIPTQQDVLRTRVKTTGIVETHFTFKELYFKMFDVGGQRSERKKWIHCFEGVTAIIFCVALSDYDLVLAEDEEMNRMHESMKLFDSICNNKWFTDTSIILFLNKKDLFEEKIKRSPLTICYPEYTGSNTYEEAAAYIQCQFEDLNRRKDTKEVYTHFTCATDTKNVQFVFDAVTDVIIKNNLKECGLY
Sa growth inh: inhibitors of Staphylococcus aureus growth at 42 °C; relative growth, % (no concentration beside the values); S. aureus RN4220 growth, OD600, 20 h; active compounds read low; actives 0.53% (n = 170,000);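 active = growth at 42 °C up to 50% and 20 or more points under that at 30 °C, or under 10% at both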;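 also: 300 nL library stock went into each well; scaled to the means of positive and negative controls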
HCMV UL50-53 inh: disrupts HCMV UL50-UL53 complex binding. actives 0.15% (n = 190,000). inhibition, % (test concentration not listed). HTRF UL50-UL53 interaction, normalized percent inhibition;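 active = both replicates at 50% or more, plus weaker picks with an unusually low signal ratio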;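 also: stock transfer was 100 nL into about 20 µL; 0% = negative control wells and 100% = wells with untagged competitor protein; inactives centre near -12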
Sa growth inh second temp: further read-out of Sa growth inh, marked with its call; relative growth, %; measured here: growth at 30 °C;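 optical density after 20 h as mean of two plates; 100% = untreated growth and lower means inhibition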
* marks the source's active call; other numbers are inactive results; . = no result given.

SMILES	GIV Gai3 FP	Sa growth inh	Sa growth inh second temp	HCMV UL50-53 inh
O=C1c2ccccc2C(=O)n2ccnc21	97.1	92.9	80.7	-14.0
CCOC(=O)c1cccc(NC(=O)c2oc3c(c2C)-c2[nH]ncc2CC3)c1	98.7	103.4	76.0	-29.3
O=C1NCCN/C1=C\C(=O)c1ccccc1	99.7	113.2	80.5	-90.4
Cc1ccc(C(=O)c2oc3ccccc3c2NC(=O)c2ccccc2Cl)cc1	95.2	.	.	27.3
O=C1c2ccccc2C(=O)N1c1nc2n(n1)C(c1ccc(F)cc1)C=C(c1ccc(Cl)cc1)N2 (stereo not given)	101.3	.	.	-1.8
Cc1cccc(NC(=O)C2CCC2)c1C(=O)O	102.9	91.2	88.9	7.4
CC(C)c1ccc(NC(=O)CSc2nccn2C)cc1	.	76.2	93.9	8.8
O=C(O)Cc1ccc(O)c(O)c1	101.3	.	.	-24.4
Cc1c(C(=O)CC#N)c2ccccn2c1CCC#N	.	81.0	90.9	-20.5
COc1cccc(-c2nc3ccccc3c(=O)n2NC(=O)/C=C/c2ccc(Br)cc2)c1	100.9	.	.	-11.9
O=C(Cn1nc2c3cc(-c4ccccc4)nn3ccn2c1=O)Nc1ccccc1	108.0	.	.	-16.9
COc1cccc(NC(=O)c2ccc3nsnc3c2)c1	101.2	92.0	73.2	-128.1
COc1ccc(Nc2ccc3cc(S(=O)(=O)N4CCOCC4)ccc3n2)cc1OC	100.4	.	.	2.1
Cc1c(C(=O)Nc2ccc(-n3cnnn3)cc2)nnn1-c1ccc2noc(-c3ccccc3)c2c1	109.3	.	.	0.1
C=CCn1c(CSCc2ccc(F)cc2)n[nH]c1=S	100.2	96.5	105.9	1.4
Cc1cc(NCc2ccccc2)n2nc(C(F)(F)F)c(-c3ccc(F)cc3)c2n1	91.7	.	.	-11.4
Cc1cc(C(=O)Oc2cc(C)c(Cl)c(C)c2)no1	108.6	124.1	106.4	3.2
CCS(=O)(=O)c1ccc2oc(SCC(=O)Nc3ccc4c(c3)OCCO4)nc2c1	.	117.6	99.3	10.0
COC(CNC(=O)c1cc(-c2ccccc2)nc2ccccc12)OC	105.8	91.4	88.7	.
O=c1c2ccccc2nc(-c2ccccc2)n1CCCn1ccnc1	105.7	87.2	98.9	11.1
O=C1CCc2cc(S(=O)(=O)Nc3cccc4c3CCCC4)cc3c2N1CC3	110.5	.	.	14.2
OC(CNCCc1ccccc1)c1ccccc1 (stereo not given)	95.9	.	.	-18.2
CC(C)(C)C(=O)N1CCCC1C(=O)O (stereo not given)	92.6	112.5	75.7	-2.5
CS(=O)(=O)c1ccc(NC(=O)c2ccc3c(c2)OCO3)cc1	.	83.1	89.2	-20.3
CCOc1ccc(NC(=S)NC(Cc2ccccc2)c2ccccc2)cc1 (stereo not given)	104.2	99.7	72.8	-12.7
Cc1cccc(C)c1Nc1scc(C)[n+]1C	100.7	100.6	86.7	-6.3
O=C(c1ccc(Cn2cc(Br)cn2)o1)n1cccn1	100.4	82.6	88.2	-4.7
Cc1cccc(NC(=O)CSc2nnc3n(C)c4ccccc4n23)c1	105.6	.	.	-17.6
Cc1cc(NC(=O)CSc2nnc3cc(C)c4ccccc4n23)no1	101.6	.	.	-2.9
Cc1cccc(NC(=S)Nc2ccccn2)c1	109.8	83.4	91.4	-8.0
CN1CCCC(OC(=O)c2cncc(Br)c2)C1 (stereo not given)	.	92.8	90.0	0.6
O=C(OCc1cccc(Br)c1)C1=COCCO1	.	96.0	96.7	8.7
O=C(c1ccc(Nc2ccc3c(c2)OCO3)nn1)N1CCc2ccccc21	104.4	.	.	-23.8
O=C(CN1C(=O)c2cccnc2Oc2ccccc21)NCCc1ccccc1	104.4	97.0	86.3	-12.6
N#CC1(NC(=O)CN2CCN(c3ccc(C(F)(F)F)cn3)CC2)CCCC1	.	79.6	83.3	0.7
Cn1ccc2cc(S(=O)(=O)N3CCN(C(=O)Nc4ccccc4F)CC3)ccc21	100.7	87.7	93.4	.

Results in HCMV UL50-53 inh, for 2 of the compounds above:
SMILES	HCMV UL50-53 inh
O=C(OCc1cccc(Br)c1)C1=COCCO1	8.7
O=C(c1ccc(Nc2ccc3c(c2)OCO3)nn1)N1CCc2ccccc21	-23.8

Carrying on.
SMILES	GIV Gai3 FP	Sa growth inh	Sa growth inh second temp	HCMV UL50-53 inh
CC(C)[C@H](NC(=O)c1ccco1)C(=O)Nc1ccc(OC(F)F)cc1	.	86.6	85.5	-15.9
O=C(NCc1ccccc1Cl)c1cnc(N2CCOCC2)c2ccccc12	103.8	90.4	94.6	.
CCCSc1nc2sc(C)c(C)c2c(=O)n1-c1ccccc1	102.6	.	.	-14.4
Cc1ccc(S(=O)(=O)N2CCN(C(=O)c3ccccc3)C2c2ccccc2)cc1 (stereo not given)	99.7	106.6	81.0	.
Cn1c(SCCCn2c(=O)[nH]c3ccccc32)nnc1C1COc2ccccc2O1 (stereo not given)	.	95.8	72.1	-33.1
Cc1ccc(-c2nc(C)sc2CC(=O)O)cc1	.	103.0	94.2	4.9
Cc1cc(C)cc(OCCSc2nccn2C)c1	.	78.2	83.5	-13.0
O=C(Oc1cccc2c1C(=O)C=CC2=O)c1ccccc1	104.1	73.8	46.7	65.1*
Cc1cc(C)cc(OCCSc2nc3ccc(NC(=O)c4ccc5c(c4)OCO5)cc3s2)c1	92.4	100.2	84.5	-8.6
CCC(C(=O)N1CCN(c2cc(C)ccc2C)CC1)n1nc(C)n2c(cc3occc32)c1=O (stereo not given)	105.3	101.1	60.3	-10.4
Cc1ccc(-c2nn3c(=O)cc(CN4CCN(C(=O)Nc5cccc(C(F)(F)F)c5)CC4)nc3s2)cc1	103.0	69.8	93.3	.
CNS(=O)(=O)c1cccc(C(=O)OCc2cc(=O)oc3c(C)c(O)ccc23)c1	.	92.7	88.0	-11.8

Exported bar-delimited: part of the list above.
Structure | GIV Gai3 FP | Sa growth inh | Sa growth inh second temp | HCMV UL50-53 inh
CS(=O)(=O)c1ccc(NC(=O)c2ccc3c(c2)OCO3)cc1 | . | 83.1 | 89.2 | -20.3
CCOc1ccc(NC(=S)NC(Cc2ccccc2)c2ccccc2)cc1 (stereo not given) | 104.2 | 99.7 | 72.8 | -12.7
Cc1cccc(C)c1Nc1scc(C)[n+]1C | 100.7 | 100.6 | 86.7 | -6.3
O=C(c1ccc(Cn2cc(Br)cn2)o1)n1cccn1 | 100.4 | 82.6 | 88.2 | -4.7
Cc1cccc(NC(=O)CSc2nnc3n(C)c4ccccc4n23)c1 | 105.6 | . | . | -17.6
Cc1cc(NC(=O)CSc2nnc3cc(C)c4ccccc4n23)no1 | 101.6 | . | . | -2.9
Cc1cccc(NC(=S)Nc2ccccn2)c1 | 109.8 | 83.4 | 91.4 | -8.0
CN1CCCC(OC(=O)c2cncc(Br)c2)C1 (stereo not given) | . | 92.8 | 90.0 | 0.6
O=C(OCc1cccc(Br)c1)C1=COCCO1 | . | 96.0 | 96.7 | 8.7
O=C(c1ccc(Nc2ccc3c(c2)OCO3)nn1)N1CCc2ccccc21 | 104.4 | . | . | -23.8
O=C(CN1C(=O)c2cccnc2Oc2ccccc21)NCCc1ccccc1 | 104.4 | 97.0 | 86.3 | -12.6
N#CC1(NC(=O)CN2CCN(c3ccc(C(F)(F)F)cn3)CC2)CCCC1 | . | 79.6 | 83.3 | 0.7
Cn1ccc2cc(S(=O)(=O)N3CCN(C(=O)Nc4ccccc4F)CC3)ccc21 | 100.7 | 87.7 | 93.4 | .
CC(C)[C@H](NC(=O)c1ccco1)C(=O)Nc1ccc(OC(F)F)cc1 | . | 86.6 | 85.5 | -15.9
O=C(NCc1ccccc1Cl)c1cnc(N2CCOCC2)c2ccccc12 | 103.8 | 90.4 | 94.6 | .
CCCSc1nc2sc(C)c(C)c2c(=O)n1-c1ccccc1 | 102.6 | . | . | -14.4
Cc1ccc(S(=O)(=O)N2CCN(C(=O)c3ccccc3)C2c2ccccc2)cc1 (stereo not given) | 99.7 | 106.6 | 81.0 | .
Cn1c(SCCCn2c(=O)[nH]c3ccccc32)nnc1C1COc2ccccc2O1 (stereo not given) | . | 95.8 | 72.1 | -33.1
Cc1ccc(-c2nc(C)sc2CC(=O)O)cc1 | . | 103.0 | 94.2 | 4.9
Cc1cc(C)cc(OCCSc2nccn2C)c1 | . | 78.2 | 83.5 | -13.0
O=C(Oc1cccc2c1C(=O)C=CC2=O)c1ccccc1 | 104.1 | 73.8 | 46.7 | 65.1*
Cc1cc(C)cc(OCCSc2nc3ccc(NC(=O)c4ccc5c(c4)OCO5)cc3s2)c1 | 92.4 | 100.2 | 84.5 | -8.6
CCC(C(=O)N1CCN(c2cc(C)ccc2C)CC1)n1nc(C)n2c(cc3occc32)c1=O (stereo not given) | 105.3 | 101.1 | 60.3 | -10.4
Cc1ccc(-c2nn3c(=O)cc(CN4CCN(C(=O)Nc5cccc(C(F)(F)F)c5)CC4)nc3s2)cc1 | 103.0 | 69.8 | 93.3 | .
CNS(=O)(=O)c1cccc(C(=O)OCc2cc(=O)oc3c(C)c(O)ccc23)c1 | . | 92.7 | 88.0 | -11.8

Later entries:
SMILES	GIV Gai3 FP	Sa growth inh	Sa growth inh second temp	HCMV UL50-53 inh
Cc1nnc(C)n1/N=C/c1ccc(N(C)CCO)cc1	.	90.0	94.4	-71.3
O=C(Nc1ccc(C(=O)O)c(O)c1)c1cccs1	104.9	93.1	92.7	.
COc1ccc2oc(=O)c(-c3nc4ccc(C)cc4[nH]3)cc2c1	115.8	128.3	89.6	.
CC12CC3(C)CC(C)(C1)CC(C(=O)NCCc1ccc(S(N)(=O)=O)cc1)(C2)C3	.	79.2	90.2	20.4
O=C(Cc1ccc(-n2cccc2)cc1)NCc1cccs1	105.9	93.2	83.4	-12.3
c1ccc(C2CCCC(c3ccccc3)S2)cc1 (stereo not given)	100.8	96.5	87.2	.
Cc1nnc(SCc2nc(-c3ccsc3)no2)n1C1CC1	.	97.0	93.7	-6.0
Cc1noc2ncnc(N3CCC(C(=O)Nc4ccc(F)cc4F)CC3)c12	107.8	.	.	5.0
Cc1csc(SCC(=O)NC(=O)C2CCCCC2)n1	.	92.0	90.3	-9.6
O=C(NCCO)c1sc2cc(F)ccc2c1Cl	.	105.0	91.0	-44.5
FC(F)(F)c1ccccc1/C=N/n1cn[nH]c1=S	.	99.8	89.8	-54.7
CCOc1ccc(NC(=O)c2sc(C)c(CC(=O)Nc3ccc(Cl)cc3)c2O)cc1	94.4	100.3	69.2	.
Cc1nc(Nc2ccc(NC(=O)Nc3ccc(F)cc3)cc2)cc(N2CCCC2)n1	105.3	.	.	6.6
COc1ccc(Cl)cc1NC(=O)CN(C)c1nnnn1-c1ccccc1	.	118.3	92.4	-6.5
COc1ccc(C(=O)/C=C/Nc2ccccc2C#N)cc1	95.1	94.6	89.4	-13.4
COc1ccc(NS(=O)(=O)c2ccc3[nH]c(=O)c(=O)[nH]c3c2)cc1OC	102.1	86.3	91.7	-11.9
CCN(Cc1ccccc1)C(=O)C1CCN(Cc2ccc(OC)cc2)CC1	.	105.1	99.9	-2.7
COC(=O)NC(c1ccccc1)c1ccccc1	102.5	99.8	96.9	-6.4
Cc1nc(N2CCCC2)c2c(C(=O)N3CCN(c4ccc(F)cc4)CC3)c(C)oc2n1	102.8	96.2	84.0	.
Cc1onc(-c2ccccc2)c1CNS(=O)(=O)c1ccccc1	108.7	57.2	46.0	-15.2
CCN(CC)c1ccc(/C=N/O)cc1	.	107.3	92.7	-14.4
COc1ccc(-c2noc(CCC(=O)Nc3ccccc3Cl)n2)cc1OC	107.0	97.7	92.3	10.2
COc1ccc(CC(=O)NCc2ccc3c(c2)CCN3C(=O)c2ccc(Cl)cc2)cc1	98.5	93.8	86.4	.
O=C(Nc1ccc2c(c1)C(=O)OC2)c1ccccc1	103.5	87.2	81.6	-11.8
COc1ccc(CCNC(=O)c2cnc3sc(N4CCCCCC4)nn3c2=O)cc1	96.2	96.6	95.4	4.2
Cc1ccccc1NC(=O)CCC(=O)N1CC(C)Sc2ccccc21 (stereo not given)	111.3	84.7	91.9	.
O=C(C1CCCCN1S(=O)(=O)c1ccccc1)N1CCCCC1 (stereo not given)	.	103.7	80.5	-17.6
Cc1cc(C(=O)Nc2cc(C)n(Cc3ccc(Cl)cc3)n2)on1	98.7	89.3	100.3	0.0
O=C(c1ccc(Cn2c(=O)c(=O)[nH]c3cccnc32)cc1)N1CCN(c2ccccn2)CC1	101.6	.	.	-18.3
CCCCNC(=O)Cn1c(=O)n(C)c2ccccc21	106.1	90.2	94.1	-9.9
COCCCNC(=O)C1CCN(c2nc3ccc(C)cc3[nH]2)CC1	101.3	81.6	78.9	.
CN1CCC(N(C)C(=O)c2nn(Cc3ccccc3)c(=O)c3ccccc23)CC1	.	101.4	86.1	-9.7
COc1ccc(OC)c(C(=O)CN2C(=O)N(c3cc(C)cc(C)c3)S(=O)(=O)c3ccccc32)c1	104.3	113.5	108.1	.
CCCNC(=O)C1CN(CC(=O)NC2CCCCC2)c2ccccc2O1 (stereo not given)	.	112.0	97.0	3.1
CCSc1nnc(Cn2c(=O)sc3ccccc32)n1C	96.7	97.4	87.2	.
OCC1=CC[N+]2(Cc3ccccc3)CCC(O)C12 (stereo not given)	99.7	108.7	89.0	-1.6

Compound activity (PubChem)
